Calb FLC – C. albicans growth modulation with fluconazole. C. albicans CaCi-2 (fluconazole-resistant clinical isolate) + fluconazole, Alamar Blue growth, 48 h. growth inhibition, % (test concentration not listed). 0.57% of 300,000 active. AID 1979;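 active means most replicates above 75%; inconclusive means exactly half above 75%; inactive means most below 75%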;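 further: all wells also contain fluconazole at 8 µg/ml as a sub-toxic cotreatment; 0% = median of DMSO wells and 100% = median of geldanamycin control wells; wells of about 8 µL received 7.5 nL stock; the first replicate is given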
Vif A3G – HIV-1 Vif–A3G interaction blockers – biochemical, TR-FRET, GST-Vif 1-94, biotin-A3G peptide, dose response retest, primary screen (AID 1117319) | TR-FRET GST-Vif / biotin-A3G peptide binding; higher % means a stronger effect; test concentration not given here; strong numbers were not always called active | one-dose inhibition, %; IC50 in µM for titrated hits | 0.57% of 260,000 active;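 active means above the screen mean plus three standard deviations and confirmed in dose response; inconclusive means results disagree or hit not tested in dose response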;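 further: Vif residues 1-94 fused to GST binding biotinylated APOBEC3G peptide 110-148; 0% = full assay without inhibitor and 100% = GST in place of GST-Vif; retest series ran down from 100 µM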
RanGTP-Impb inh – inhibitors of RanGTP-importin-beta interaction, primary screen, biochemical, FRET, CFP-Ran, YFP-importin-beta, homogeneous | cell-free CFP-Ran/YFP-importin-beta FRET ratio | inhibition, % (no concentration beside the values) | 1.1% of 300,000 active;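 active means most replicates above 15%; inconclusive means exactly half above 15%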;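 further: 0% = DMSO wells and 100% = Ran loaded with GDP instead of GTP; wells of about 40 µL received 100 nL stock; the first replicate is given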
AF4-AF9 inh – inhibitors of human MLL-AF4/AF9 interaction | 0.47% of 350,000 active | P42568 | AlphaScreen, biotin-AF4 peptide binding to FLAG-AF9 | inhibition, % at 10 µM;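 active means every replicate reaching a set inhibition limit, whatever the replicate mean, cut at about 25% in these data; inconclusive means mean inhibition reaches that limit but some replicates miss it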;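 further: 0% = plate neutral control median and 100% = total signal loss; the record names both 10 and 1 µM as test concentration; the first replicate is given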
Target sequence (P42568 whole entry, looked up): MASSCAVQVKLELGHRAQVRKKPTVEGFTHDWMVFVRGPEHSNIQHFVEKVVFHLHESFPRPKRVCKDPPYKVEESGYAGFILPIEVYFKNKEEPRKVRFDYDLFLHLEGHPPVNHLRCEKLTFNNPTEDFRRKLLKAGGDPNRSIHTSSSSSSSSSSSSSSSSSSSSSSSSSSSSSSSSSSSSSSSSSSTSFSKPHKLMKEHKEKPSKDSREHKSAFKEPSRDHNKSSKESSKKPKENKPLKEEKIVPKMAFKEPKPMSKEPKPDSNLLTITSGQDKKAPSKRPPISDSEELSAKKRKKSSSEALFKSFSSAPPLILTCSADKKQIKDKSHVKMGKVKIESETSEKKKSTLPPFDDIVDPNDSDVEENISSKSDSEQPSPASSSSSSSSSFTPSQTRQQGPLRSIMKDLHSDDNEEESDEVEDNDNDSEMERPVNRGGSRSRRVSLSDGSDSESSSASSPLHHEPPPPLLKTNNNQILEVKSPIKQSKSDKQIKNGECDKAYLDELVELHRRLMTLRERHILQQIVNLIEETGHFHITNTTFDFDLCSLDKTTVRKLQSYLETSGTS
Beta apoptosis – beta cell apoptosis inhibition | INS-1E cytokine-induced death, ATP luminescence, 48 h; percent of positive-control rescue, neutral wells zero | protection from apoptosis, % (test concentration not listed) | 0.8% of 300,000 active | AID 435005;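 active means all replicates at 75% or more, or half of them and the mean; inconclusive means half reach 75% but not the mean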;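 further: 0% = cytokine-treated negative control wells and 100% = positive control rescue; higher means more ATP so stronger rescue from cytokine killing; wells of about 40 µL received 100 nL stock; the first replicate is given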
LANA-H2A inh – blocks KSHV LANA binding to histone H2A/H2B | Q9QR71 | cell-free LANA-H2A/H2B peptide, fluorescence polarization | inhibition, % (test concentration not listed) | 0.6% of 320,000 active; in the data active means inhibition mostly above about 10%, no sharp cut-off; inactive means mostly below about 6.7%;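 further: stock transfer was 7.5 nL into about 10 µL; 0% = median of vehicle wells and 100% = median of positive control wells; one replicate is shown; the record names a cut of 25% in any replicate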
Bfl-1 A1 inh – inhibitors of the anti-apoptotic protein A1, read as caspase activation; MEF A1-2A-BIM cells, Caspase-Glo 3/7 luminescence, 3 h; percent of clofoctol response, vehicle zero; caspase activation, % (concentration not given with the values); 0.066% of 330,000 active; AID 2462;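 active means over half of replicate activation scores above 10%, or exactly half above 10 with the replicate mean above 10; inconclusive means replicate mean below 10 yet half the replicates above 10; inactive means over half of replicates below 10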;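 further: wells of about 30 µL received 50 nL stock; many hits fall short of the cut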
T cruzi inh – blocks replication of Trypanosoma cruzi. T. cruzi beta-gal in NIH3T3, luminescence, 90 h. inhibition, % (no concentration beside the values). 1.4% of 300,000 active;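 active means mean inhibition across valid replicates above about 55%, limit read from the data; inconclusive means mean below that limit but half or more replicates reach it; inactive means mean below it, under half of replicates reach it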;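 further: signal also drops with host cell toxicity which is not excluded here; 0% = plate median of DMSO wells and 100% = zero luminescence signal; higher percent means less beta-gal luminescence so fewer parasites; stock transfer was 50 nL into about 50 µL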
Active calls of the source: *; ? = inconclusive; · = not tested or not shown; & = joins results of further samples. Compounds were not picked by outcome; 4.3% or so of the library scored in one or more.

SMILES	Calb FLC	Vif A3G	RanGTP-Impb inh	AF4-AF9 inh	Beta apoptosis	LANA-H2A inh	Bfl-1 A1 inh	T cruzi inh
N#C/C(=N/O)c1nc(-c2ccc(F)cc2)cs1	-8.0	1.7%	0.3	-10.2	9.1	2.4	-1.1	-0.7
COC(=O)c1cccc(N(C(=O)c2cnccn2)C(C(=O)NC2CCCCC2)c2cn(C)nc2C)c1 (stereo not drawn)	-8.2	-1.3%	1.3	·	-5.2	3.4	-0.4	-3.0
CCc1nnc(NC(=O)CCC(=O)N2CCN(Cc3ccc(Cl)cc3)CC2)s1	0.3	-2.9%	2.4	·	1.4	-1.1	1.9	32.4
O=[N+]([O-])c1cccc(-n2nnnc2CNCc2ccccc2)c1	-4.7	16.8%	2.2	6.0	0.5	-0.2	-0.2	8.8
Cc1cccc(N/N=C(\C=N\N)C(=O)c2ccc(Br)cc2)c1	-6.5	9.6%	0.7	·	0.4	-2.0	0.1	8.4
O=C(Nc1nccs1)c1ccc(Cl)c(S(=O)(=O)N2CCOCC2)c1	-27.6	1.1%	0.8	·	-5.6	10.7	1.3	2.7
O=C1C=C(c2cccc(Cl)c2O)C[C@@H](c2ccc(F)cc2)C1	·	·	·	-1.9	10.5	-0.2	-1.5	·
CC1(C)Cc2c(sc3nc(-c4cc5ccccc5o4)n(N)c(=O)c23)CO1	1.4	0.6%	0.0	·	7.4	-1.7	-0.8	10.1
O=C(NCCCN1CCOCC1)c1sc2ccccc2c1Cl	9.9	-3.7%	3.7	0.2	-3.4	3.4	0.3	0.0
Cc1cc(C)nc(/N=C2\NC(=O)CC(C(=O)O)N2c2ccc(F)c(Cl)c2)n1 (stereo not drawn)	-2.8	0.3%	3.9	·	-3.1	-0.7	3.5	6.9
Cc1nn(CC(=O)NCC2CCCO2)c(C)c1[N+](=O)[O-] (stereo not drawn)	-1.9	·	-0.8	-2.1	-4.2	-0.1	-0.2	-27.2
COc1ccc(CNC(=O)CCn2c(=O)[nH]c3ccccc3c2=O)cc1	-8.5	13.5%	-1.0	4.8	-4.0	0.3	0.1	-7.7
Cc1cccc(-c2oc3ccc(-c4ccc5c(c4)OCO5)cc3c2/C=C/c2ccc(N)cc2)c1	-1.0	·	-2.1	·	1.8	1.1	0.5	2.1
CNC(=O)NNC(=O)c1onc(-c2c(Cl)cccc2Cl)c1C(=O)OC	0.3	·	0.3	1.9	·	6.4	0.3	-1.3
COc1cc2[nH]c(C(=O)N3CCc4ccccc43)cc2c(OC)c1OC	-3.1	-4.8%	1.3	-0.3	10.9	-3.4	-5.7	14.1
Cc1cc(C)nc(NS(=O)(=O)c2ccc(CC(C)C)cc2)c1	4.6	·	-0.7	-17.7	-5.7	1.9	-1.5	-1.6
NS(=O)(=O)c1cccc(NS(=O)(=O)c2ccc(/C=C/C(=O)OCC(=O)c3ccc(Br)cc3)cc2)c1	-2.5	·	-2.8	-1.3	1.8	3.5	0.5	-9.0
O=C(O)c1cn(-c2ccccc2)c(=O)c2ccccc12	1.7	-2.6%	3.1	·	·	-3.8	?	-15.3
Cn1c2c(c(=O)n(C)c1=O)C(c1ccc(F)cc1)C(C#N)=C(N)O2 (stereo not drawn)	-5.7	11.2%	2.2	-6.1	-0.2	-0.8	0.0	3.3
CCN(C(=O)COc1ccc2ccc(=O)oc2c1)C1CCCCC1	·	·	·	-3.8	-0.2	-0.5	-0.1	·
CCn1c(=O)c(C(=O)NNC(=O)c2ccccc2F)c(O)c2ccccc21	19.6	·	0.3	1.7	3.0	4.9	-0.7	-4.2
COc1ccc(-c2nc(NC(=O)C3CCN(c4nc5ccccc5o4)CC3)sc2C)cc1	-13.9	5.3%	?	·	23.5	-2.0	0.4	45.8
CCOC(=O)COc1ccc2c3c(c(=O)oc2c1C)CCC3	-9.7	23.9%	0.2	·	0.3	0.8	-1.5	4.7
CC(C)Cn1c(N)c(C=O)c(=O)n(C)c1=O	49.5	-4.1%	-0.2	-1.0	·	-9.1	2.5	-14.8
O=C1c2cccc3cc([N+](=O)[O-])cc(c23)C(=O)N1CC1CCCO1 (stereo not drawn)	-5.6	-3.5%	-3.3	1.5	19.5	9.3	0.0	50.8
SMILES	Calb FLC	Vif A3G	RanGTP-Impb inh	AF4-AF9 inh	Beta apoptosis	LANA-H2A inh	Bfl-1 A1 inh	T cruzi inh
O=C1CN(C(=O)c2ccco2)C(c2ccccc2)c2cc(Cl)ccc2N1 (stereo not drawn)	-6.9	10.6%	-5.2	·	7.5	-1.6	0.8	-2.0
CCc1c(C)nc(SCC(=O)NC2CCCC2)[nH]c1=O	2.2	·	2.6	-0.1	7.6	2.3	0.5	-9.0
CC(C)/C=N/NC(=O)c1cccc(N2CCCC2=O)c1	-1.4	·	-0.4	0.2	-2.6	3.0	-0.5	-11.0
CCC1(c2ccc(F)cc2)NC(=O)N(CC(=O)N2c3ccccc3CC2C)C1=O (stereo not drawn)	·	0.6%	·	4.9	-4.3	8.5	-1.1	·
Cc1ccc(Cl)cc1NC(=O)COc1ccccc1	-14.2	·	8.9	-3.9	2.1	-0.1	-1.8	3.7
COc1cc(/C=N/N(c2ccccc2)c2ccccc2)ccc1O	10.4	-3.9%	3.2	11.3	2.5	-0.3	-0.2	13.8
COc1ccc(Cl)cc1C(=O)NNC(=O)CNC(=O)c1ccco1	·	·	·	0.5	-4.2	0.8	-0.4	·
CN(C)c1ccc(NC(=O)Cn2c(=O)n(Cc3ccccc3)c(=O)c3ccccc32)cc1	-6.6	0.7%	6.1	·	·	-1.3	1.3	13.3
Cn1c(COc2ccccc2)nnc1SCCSc1nnc(COc2ccccc2)n1C	22.5	-1.1%&-2.0%	-0.6	·	2.7	0.6	0.5	15.3
COc1cc2c(cc1OC)CN(CCC(C)c1ccc(Cl)cc1)CC2 (stereo not drawn)	6.1	·	6.9	8.9	-3.3	1.3	0.8	23.3
CCOC(=O)N1CCC(N2Cc3cccc(C(=O)NCc4ccccc4OC)c3C2=O)CC1	4.4	3.1%	-0.3	·	4.9	3.8	0.2	23.4
O=C(NNC(=O)c1ccccc1O)c1ccc(Cl)cc1	36.6	-2.1%	4.8	·	32.3	2.4	-3.1	-10.7
O=C1C=C(c2ccc3c(c2)OCO3)C[C@@H](c2ccc(F)cc2)C1	·	·	·	3.9	-9.0	3.4	0.6	·
Cn1ncc([N+](=O)[O-])c1C(=O)Nc1ccc(Cl)cc1	-8.9	-6.3%	3.6	0.8	-4.9	-3.1	1.1	-12.6
CC(=O)Nc1nc(C)c(C(C)(C)C)s1	-9.6	·	-2.5	9.7	-3.6	-0.4	0.2	-13.2
COC(=O)c1ccc(NC(=O)COc2ccc(S(=O)(=O)N3CCCCC3)cc2)cc1	7.7	-5.2%	?	·	·	·	·	-6.3
CSCCCNC(=S)Nc1ccc(N2CCOCC2)cc1	-7.9	8.0%	2.2	-2.4	-0.7	-1.8	0.0	-8.8
CC(C)Cc1nnc(NC(=O)C2CC(=O)N(c3ccc4c(c3)OCCO4)C2)s1 (stereo not drawn)	·	·	·	-3.9	-11.2	-3.5	0.3	·
CC(=O)Nc1ccc(S[C@@H](CCN2CC[C@H](C(C)(C)C)CCC2=O)c2ccccc2)cc1	·	·	·	-6.0	-7.1	3.5	-0.5	·
Cc1cc(C(=O)NNC(=S)NC2CCCCC2)cs1	-13.3	-9.2%	-1.3	1.4	1.0	-2.7	1.0	-14.8
Cn1c(-c2ccccc2)cnc1NCc1cccc([N+](=O)[O-])c1	10.3	·	?	5.3	·	-6.3	0.2	13.7
COc1cc(C2C(C(=O)c3cccs3)=C(O)C(=O)N2CCN2CCOCC2)cc(OC)c1OC (stereo not drawn)	-2.7	·	-5.0	1.6	-2.4	2.3	0.1	-1.1
CCCOc1ccc(N2C(=O)CC(N(CCc3ccc(OC)cc3)C(=O)c3cccc(F)c3)C2=O)cc1 (stereo not drawn)	-1.9	12.4%&-3.7%	0.9	·	-3.6	-6.0	?	-7.6
Cc1ccc(NS(=O)(=O)c2cc3c4c(c2)CC(=O)N4CCC3)cc1C	6.1	8.0%	-0.6	2.8	5.8	0.8	-0.1	4.6
CCn1c(Cc2ccccc2)nnc1SCC(=O)Nc1ccc(N2CCOCC2)c(Cl)c1	-9.8	-1.7%	-0.6	·	-3.4	3.1	-0.3	27.0
CCOC(=O)c1nn(-c2ccc(C)cc2)c(=O)cc1OCC(=O)Nc1ccc(OC)cc1	-12.6	·	-1.5	-1.9	1.6	·	0.3	-7.6
O=C(Nc1cccc(C(F)(F)F)c1)c1cnc2n(c1=O)CCS2	6.6	1.2%	3.9	7.4	·	-5.0	-0.1	-19.4
Cc1ccc(C(=O)OCC(=O)NC(C)c2ccccc2)cc1C (stereo not drawn)	·	·	·	-2.3	-5.0	-0.8	-0.9	·

Ordered by formula weight (high to low): some entries from above
SMILES	Calb FLC	Vif A3G	RanGTP-Impb inh	AF4-AF9 inh	Beta apoptosis	LANA-H2A inh	Bfl-1 A1 inh	T cruzi inh
CCCOc1ccc(N2C(=O)CC(N(CCc3ccc(OC)cc3)C(=O)c3cccc(F)c3)C2=O)cc1 (stereo not drawn)	-1.9	12.4%&-3.7%	0.9	·	-3.6	-6.0	?	-7.6
COc1cc(C2C(C(=O)c3cccs3)=C(O)C(=O)N2CCN2CCOCC2)cc(OC)c1OC (stereo not drawn)	-2.7	·	-5.0	1.6	-2.4	2.3	0.1	-1.1
Cn1c(COc2ccccc2)nnc1SCCSc1nnc(COc2ccccc2)n1C	22.5	-1.1%&-2.0%	-0.6	·	2.7	0.6	0.5	15.3
COC(=O)c1ccc(NC(=O)COc2ccc(S(=O)(=O)N3CCCCC3)cc2)cc1	7.7	-5.2%	?	·	·	·	·	-6.3
CN(C)c1ccc(NC(=O)Cn2c(=O)n(Cc3ccccc3)c(=O)c3ccccc32)cc1	-6.6	0.7%	6.1	·	·	-1.3	1.3	13.3
CC(C)Cc1nnc(NC(=O)C2CC(=O)N(c3ccc4c(c3)OCCO4)C2)s1 (stereo not drawn)	·	·	·	-3.9	-11.2	-3.5	0.3	·
COc1cc2c(cc1OC)CN(CCC(C)c1ccc(Cl)cc1)CC2 (stereo not drawn)	6.1	·	6.9	8.9	-3.3	1.3	0.8	23.3
COc1ccc(Cl)cc1C(=O)NNC(=O)CNC(=O)c1ccco1	·	·	·	0.5	-4.2	0.8	-0.4	·
COc1cc(/C=N/N(c2ccccc2)c2ccccc2)ccc1O	10.4	-3.9%	3.2	11.3	2.5	-0.3	-0.2	13.8
Cc1ccc(C(=O)OCC(=O)NC(C)c2ccccc2)cc1C (stereo not drawn)	·	·	·	-2.3	-5.0	-0.8	-0.9	·
Cc1cc(C(=O)NNC(=S)NC2CCCCC2)cs1	-13.3	-9.2%	-1.3	1.4	1.0	-2.7	1.0	-14.8
CC(=O)Nc1nc(C)c(C(C)(C)C)s1	-9.6	·	-2.5	9.7	-3.6	-0.4	0.2	-13.2

As entered above:
For Bfl-1 A1 inh, `CC(=O)Nc1ccc(S[C@@H](CCN2CC[C@H](C(C)(C)C)CCC2=O)c2ccccc2)cc1` shows -0.5
For Calb FLC, `COc1cc2c(cc1OC)CN(CCC(C)c1ccc(Cl)cc1)CC2` (stereo not drawn) shows 6.1

Source: PubChem BioAssay (several laboratories)
